High-throughput results (PubChem BioAssay)
ClpP mod – qHTS Assay for Activators of ClpP; purified B. subtilis ClpP, FRET peptide cleavage, 20 min; Potency, µM (titrated, usually from 57.5 µM), for inactives: at the highest dose activity change, negative = active; ATP-dependent Clp protease proteolytic subunit (Bacillus subtilis (strain 168)), P80244; 1.9% of 340,000 active; active = well fitted falling curve with a large enough effect; inconclusive = small, poorly fitted or top-dose-only effect; inactive = no such curve, though single readings can be large or run the other way; also: potency is read from the fitted curve at half-maximal effect; the source files actives as falling curves though it sought activators and does not explain the sign; nearly all actives have a fitted effect of over 65% in size; many hits overshoot -100%
Target sequence (P80244 whole entry, looked up): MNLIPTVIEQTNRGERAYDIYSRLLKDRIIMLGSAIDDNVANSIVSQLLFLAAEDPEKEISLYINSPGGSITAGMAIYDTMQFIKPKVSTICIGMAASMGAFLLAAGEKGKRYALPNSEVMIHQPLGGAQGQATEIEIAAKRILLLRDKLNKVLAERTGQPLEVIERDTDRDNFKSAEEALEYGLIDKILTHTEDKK
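FRET quenching reversal measured ClpP activation: 10 microg/mL B. subtilis ClpP at pH 8 with the FRET-FV decapeptide, read at 430 nm after 320 nm excitation. The 20-min minus 0-min signal was scaled between DMSO/no-enzyme wells and ADEP (5.8 microM final).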
CtBP-E1A inh – qHTS Assay for Inhibitors of the CtBP/E1A Interaction. CtBP / adenovirus E1A interaction (AlphaScreen). 0.49% of 340,000 active. AID 651724, 2012. activity change, % (test concentration not listed). AlphaScreen GST-E1A/His-CtBP binding, 1536-well; stronger effect = lower value; control for the full effect not named in the record; in the data active means activity change below about -65%; inconclusive means about -30% to -65%; inactive means above about -30%; also: % is scaled to controls: 0 for no effect and ±100 for the full control effect; compound concentration not given in the record
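GST-E1A and His-tagged CtBP (125 nM each as 5X stock) were preincubated with pin-transferred compound for 2 h at 37 °C in the dark, then glutathione donor and nickel acceptor beads were added for 1 h before AlphaScreen reading.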
gsp antagonist – qHTS for Antagonists of gsp, the Etiologic Mutation Responsible for Fibrous Dysplasia/McCune-Albright Syndrome: qHTS | Potency, µM (series often up to 76.9 µM), without a hit: at the highest dose activity change, negative = inhibition, hits mostly inhibitors | AID 624288, 2012 | gsp-mutant cells, cAMP HTRF, 30 min; control for the full effect not named in the record | 0.4% of 340,000 active; active = falling curve of any shape with a large fitted effect; inconclusive = falling curve, mostly with a smaller effect; inactive = flat or rising curve; cell line not stated here;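 also: intracellular cAMP measured with PDE inhibitor Ro 20-1724 present during compound exposure; potency is read from the fitted curve at half-maximal effect; % is scaled to controls: 0 for no effect and ±100 for the full control effect; nearly all actives have a fitted effect of over 65% in size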
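Cells, 2000/well, grown 16–24 h in DMEM 10% FBS with 0.5 mg/ml G418, then compounds plus […] (300 uM addition stock), 30 min at 37C. cAMP read by HTRF (cAMP-d2 and anti-cAMP antibody-K in lysis buffer) after 30 min RT.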
Menin-MLL FL inh – qHTS Assay for Inhibitors Targeting the Menin-MLL Interaction in MLL Related Leukemias: Competition With Fluorescein Labeled MLL-derived Peptide | Fluorescence polarization, fluorescein-MLL peptide displacement from menin | FP activity change, % at 61.4 µM | 290,000 tested, under 10 active | AID 1766, 2009; inconclusive = falling polarisation curve, or a change in total fluorescence; inactive = total fluorescence flat and polarisation flat or rising; no compound was filed as active; the % refers to the polarisation; negative = inhibition;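 also: % of control where 0% means no effect; inhibitors lower the polarisation; unlabelled MLL peptide was the positive control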
gsp ag – qHTS for Agonist of gsp, the Etiologic Mutation Responsible for Fibrous Dysplasia/McCune-Albright Syndrome: qHTS. gsp mutant cells, cAMP HTRF, 30 min; control for the full effect not named in the record. Potency, µM (top dose mostly 76.9 µM), inactives show at the top dose activation (cAMP increase), usual class: activators. 0.13% of 340,000 active; active = well fitted activation curve with a large enough effect; inconclusive = small, poorly fitted or top-dose-only effect, or another doubt; inactive = no such curve, though single readings can be large or run the other way; cell line not stated here;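 also: phosphodiesterase inhibitor Ro 20-1724 added with compounds to block cAMP breakdown; potency is read from the fitted curve at half-maximal effect; nearly all actives have a fitted effect of over 60% in size; about a fifth of the inactives were tested at one dose only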
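Cells stably selected in G418 were plated at 2000/well, grown 16-24 hr, then given compounds in DMSO with the PDE inhibitor […] (300 uM solution added) for 30 min at 37C; cAMP was read by HTRF.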
Sfp PPTase inh – qHTS Assay for Inhibitors of Bacillus subtilis Sfp phosphopantetheinyl transferase (PPTase). 4'-phosphopantetheinyl transferase ffp (Bacillus subtilis), Q9F4F7. Biochemical Sfp PPTase activity, qHTS. 3.5% of 310,000 active. AID 1490, 2009. Potency, µM, for the others: max response, negative = inhibition, most hits filed as inhibitors; active = well fitted inhibition curve with a large enough effect; inconclusive = small, poorly fitted or top-dose-only effect, or another doubt; inactive = no such curve, though single readings can be large or run the other way;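 also: the enzyme is Sfp with the accession as filed and its product quenches rhodamine fluorescence; potency is read from the fitted curve at half-maximal effect; 0% = enzyme reaction without inhibitor and -100% = no enzyme wells; top concentration of the series not given in the record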
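Step 1, compound plus 15 nM Sfp-PPTase, 15 min, room temperature. Step 2, add rhodamine-CoA (5 uM) and BHQ-2-YbbR (12.5 uM). Step 3, read 525/598 nm fluorescence at 0 and 30 min.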
TRPV1 PAM – HTS Assay for Compounds that Act as Potentiators of the Vanilloid Receptor 1 | AID 540277, 2011 | 0.02% of 320,000 active | potentiation, % at 8.33 µM | TRPV1-expressing cells, Fluo-8 calcium influx, capsaicin EC20 potentiation; host cell line not named in the record; control for the full effect not named in the record; active means potentiation above 80%; inconclusive means 30% to 80%; inactive means below 30%; also: 0% is about no effect
Target sequence (Q8NER1 whole entry, looked up): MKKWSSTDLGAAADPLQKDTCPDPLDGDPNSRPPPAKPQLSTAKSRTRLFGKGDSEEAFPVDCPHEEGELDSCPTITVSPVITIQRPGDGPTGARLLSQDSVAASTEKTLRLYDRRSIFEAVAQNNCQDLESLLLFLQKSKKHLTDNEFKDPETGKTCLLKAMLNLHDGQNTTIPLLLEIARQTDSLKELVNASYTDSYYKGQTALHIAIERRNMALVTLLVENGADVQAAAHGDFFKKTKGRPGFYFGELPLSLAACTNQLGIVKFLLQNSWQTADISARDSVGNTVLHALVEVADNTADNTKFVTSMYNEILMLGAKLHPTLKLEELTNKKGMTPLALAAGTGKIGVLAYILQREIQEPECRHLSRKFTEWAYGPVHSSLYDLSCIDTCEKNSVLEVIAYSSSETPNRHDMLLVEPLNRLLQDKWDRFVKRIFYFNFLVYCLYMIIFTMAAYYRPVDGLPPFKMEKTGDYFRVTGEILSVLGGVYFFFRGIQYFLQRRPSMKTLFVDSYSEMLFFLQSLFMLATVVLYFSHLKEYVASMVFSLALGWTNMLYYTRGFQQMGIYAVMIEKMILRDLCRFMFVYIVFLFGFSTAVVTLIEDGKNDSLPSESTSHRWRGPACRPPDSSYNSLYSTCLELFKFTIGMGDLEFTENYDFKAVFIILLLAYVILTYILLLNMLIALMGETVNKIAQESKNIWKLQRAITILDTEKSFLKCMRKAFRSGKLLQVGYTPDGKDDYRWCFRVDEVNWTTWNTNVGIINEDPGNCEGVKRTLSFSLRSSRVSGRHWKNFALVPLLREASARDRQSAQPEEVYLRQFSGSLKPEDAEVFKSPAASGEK
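TRPV1-expressing cells were cultured overnight at 35.5C and loaded with Fluo-8 calcium dye for 40 to 90 min at room temperature. After a 10 s baseline, compound was added and calcium influx was read kinetically for 3 min (ex 480/em 520 nm).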
* hit, by the source's call; ? = inconclusive; · = no result given; & = joins results of further samples; [ ] = dose if it differs, or a comment. Compounds as they come, and some 5.3% of all compounds hit somewhere here.

cpd	SMILES	ClpP mod	CtBP-E1A inh	gsp antagonist	Menin-MLL FL inh	gsp ag	Sfp PPTase inh	TRPV1 PAM
1	O=C(O)CC(CC(=O)Nc1nncs1)c1ccccc1 (stereo not drawn)	-1.5%	-6	18%	0.0	20%	21%	5
2	Cc1nc(Nc2cc(F)ccc2C)c2nnn(Cc3ccccc3)c2n1	·	5	-9%	0.9	-6%	-51%	19
3	Cc1ccnc(NC(=O)C2CC(=O)N(Cc3ccccc3)C2)c1 (stereo not drawn)	·	2	7%	·	13%[15.4 µM]	·	1
4	O=c1c[n+]([O-])c2ccccc2n1OCc1c(F)cccc1F	-11%	-3	-14%	?	-16%	1%	7
5	O=C(/C=C/c1ccccc1)c1ccc(NC2=NCCCS2)cc1	-0.6%	3	18%	1.9	-13%	-13%	4
6	Cc1ccccc1N(CC(=O)NCCc1ccccc1)C(=O)c1ccc(N2CCCC2)nc1	-5.1%	-2	-17%	3.8	1%	-10%	2
7	Cc1ccc(SCC(=O)OC(C)C(=O)NCc2ccccc2)cc1C (stereo not drawn)	·	6	-2%	·	29%[15.4 µM]	·	-23
8	CNC(=O)NC(=O)CN1C(=O)NC2(CCOc3ccccc32)C1=O (stereo not drawn)	·	-2	3%	·	17%	6%	-5
9	O=C1CC(SC2=NCCS2)C(=O)N1c1ccc(Br)cc1 (stereo not drawn)	-11%	2	-9%	4.6	-33%[inhibitor]	18%	-1
10	CC1CCC(C(O)(C(=O)c2ccccc2)c2ccccc2)C(=O)C1 (stereo not drawn)	-9.0%	-11	·	·	?	·	·
11	C/C(=N\OCC(=O)Nc1ccc(F)c(F)c1F)c1cc2ccccc2o1	0.1%	0	-11%	6.0	11%[15.4 µM]	0%	-17
12	CCOc1cc(N2CCOCC2)c(OCC)cc1NC(=O)CSc1nc(N)cc(=O)[nH]1	-1.2%	0	0%	·	-43%[inhibitor]	·	-12
13	O=c1[nH]n2c(=O)c3c([nH]c2c1N=Nc1cccc(C(F)(F)F)c1)CCCC3	-3.9%	-23	-20%	0.6	-6%	11%	6
14	CC(c1nc2scc(-c3ccccc3)c2c(=O)[nH]1)N1CCN(CC(=O)NC2CC2)CC1 (stereo not drawn)	-3.5%	-20	-8%	·	-13%[15.4 µM]	·	-4
15	Cn1c(C(=O)N[C@@H](Cc2ccccc2)C(=O)O)cc2cc(Cl)ccc21	-0.3%	7	-29%	?	1%[15.4 µM]	21%	21
16	Cc1ccc(N(CC(=O)NCCc2ccccc2)C(=O)CCC(=O)Nc2cc(C)ccn2)cc1	-2.1%	0	5%	4.0	-2%[15.4 µM]	-24%	22
17	O=C(NC1CCS(=O)(=O)C1)c1ccc2c(c1)OCO2 (stereo not drawn)	-14%	3	1%	·	-16%	·	-3
18	O=C(CN1CCN(c2cccc(C(F)(F)F)c2)CC1)N(C1CCCC1)C1CCS(=O)(=O)C1 (stereo not drawn)	0.3%	-1	6%	·	0%	·	1
19	Cc1cc(C(=O)NCCCn2ccnc2)cs1	-0.5%	1	7%	-1.4	-3%	12%	1
20	CSc1nc2ccccc2n1C(=O)Oc1ccccc1	-0.6%	3	5%	1.7	-27%	-10%	-3
21	Cc1cc(C)c(NC(=O)CSc2nc3c(c(=O)n2C)SC(C)C3)c(C)c1 (stereo not drawn)	-1.3%	0	-11%	-0.1	-81%[inhibitor]	23%	18
22	COc1cccc(NC(=O)CN(C)C(=O)c2ccc(-c3ccc(Cl)cc3)o2)c1	?	3	-13%	·	-6%	·	-21
23	Cc1ccc(S(=O)(=O)N/N=C/c2ccc(C#N)cc2)cc1	·	3	-4%	-6.6	-40%[inhibitor]	18%	7
24	COCCN(CCOC)Cc1c(O)ccc2c1O/C(=C\c1ccco1)C2=O	·	-28	-22%	?	27%	40µM*	8
25	CCOC(=O)c1cc(C(=O)NN)c(C)nc1C	-3.7%	0	1%	10	-38%[inhibitor]	-4%	8
26	O=C(COc1ccccc1)N(Cc1ccco1)c1ccc(O)cc1	-1.6%	13	-1%	1.5	?	15%	-5
27	Cc1ccc(S(=O)(=O)NC(=O)NCc2ccc3c(c2)OCO3)cc1	-1.0%	6	-12%	1.9	-14%	25%	9
28	Nc1cc(=O)[nH]c(SCc2cccc3ccccc23)n1	-0.8%	-6	0%	-2.0	?	-2%	18
29	CCc1nnc(NC(=O)CSc2nnc(-c3c[nH]c4ccccc34)n2C)s1	0.9%	2	-10%	0.3	7%	11%	15
30	O=C(N/N=C/c1cccnc1)c1cc2ccccc2o1	-3.6%	·	-4%	3.9	6%	13%	-17

Some of these compounds in order of length of the SMILES, largest number first.
cpd	SMILES	ClpP mod	CtBP-E1A inh	gsp antagonist	Menin-MLL FL inh	gsp ag	Sfp PPTase inh	TRPV1 PAM
18	O=C(CN1CCN(c2cccc(C(F)(F)F)c2)CC1)N(C1CCCC1)C1CCS(=O)(=O)C1 (stereo not drawn)	0.3%	-1	6%	·	0%	·	1
12	CCOc1cc(N2CCOCC2)c(OCC)cc1NC(=O)CSc1nc(N)cc(=O)[nH]1	-1.2%	0	0%	·	-43%[inhibitor]	·	-12
11	C/C(=N\OCC(=O)Nc1ccc(F)c(F)c1F)c1cc2ccccc2o1	0.1%	0	-11%	6.0	11%[15.4 µM]	0%	-17
27	Cc1ccc(S(=O)(=O)NC(=O)NCc2ccc3c(c2)OCO3)cc1	-1.0%	6	-12%	1.9	-14%	25%	9

Next part:
cpd	SMILES	ClpP mod	CtBP-E1A inh	gsp antagonist	Menin-MLL FL inh	gsp ag	Sfp PPTase inh	TRPV1 PAM
31	CN(Cc1ccccc1N1CCCC1)C(=O)c1cc2cc(Cl)ccc2o1	-5.7%	-29	-29%	·	-17%	·	-10
32	O=C(c1ccccc1F)N1CCN=C1SCc1cccnc1	1.0%	4	5%	-1.0	-35%[inhibitor]	10%	7
33	CCN(CC)CCC(c1ccc(OC)cc1)c1c(O)cc(OC)cc1OC (stereo not drawn)	1.6%	-3	6%	1.0&1.5	·	0%&8%	9
34	Cc1ccc2occ(/C=C/C(=O)c3ccccc3O)c(=O)c2c1	16µM*	2	-7%	?	-1%	9%	-9
35	CCc1nn2c(=O)cc(CSc3nc(C)cc(=O)[nH]3)nc2s1	2.5%	3	0%	0.5	?	8%	-8
36	O=C(Nc1ccc(C(=O)O)cc1)Nc1cccc([N+](=O)[O-])c1	-0.5%	1	7%	·	-7%	-15%	-5
37	Cc1ccc2c(c1)nnn2C1CCN(S(=O)(=O)c2ccc(C(=O)N3CC(C)CC(C)C3)cc2)CC1 (stereo not drawn)	-0.2%	3	-26%	4.4	-20%	21%	2
38	Cc1ccc(NC(=O)Nc2ccccc2F)cc1S(=O)(=O)N1CCOCC1	-0.2%	0	-7%	·	16%	·	-13
39	CCN(c1cccc(C)c1)C(C(=O)Nc1ccc(OC)cc1)c1cc2c(cc1[N+](=O)[O-])OCO2 (stereo not drawn)	0.1%	6	11%	-0.5	17%[15.4 µM]	4%	17
40	CCCn1c(CN2CCN(C(=O)OCC)CC2)nc2c1c(=O)n(C)c(=O)n2C	-1.3%	4	8%	-2.1	?	10%	5
41	CC(C)c1cc(C(=O)O)n(-c2ccccc2)n1	-2.1%	5	2%	1.1	-1%	13%	7
42	Cc1cc(C(F)(F)F)c(C#N)c(N2CCOCC2)n1	-2.9%	7	6%	-8.4	-4%	?	-1
43	CCOc1ccc(NC(=O)CSc2nc3ccsc3c(=O)n2CCC(=O)O)cc1	2.2%	2	4%	0.6	?	9%	7
44	N#CC1(NC(=O)CSc2ccccn2)CCCCC1	-2.2%	-23	9%	·	-10%[15.4 µM]	·	0
45	O=C(N=C1SC2CS(=O)(=O)CC2N1c1cc(Cl)ccc1Cl)C1CC1 (stereo not drawn)	0.2%	·	8%	-2.0	-13%	9%	?
46	CCOC(=O)CSc1ccc(C(=O)Nc2ccc(OC)cc2)cn1	·	2	-8%	-3.7	-21%	28%	-21
47	Cc1ncsc1CCC(=O)N1CCCC(Nc2ccc(C(C)C)cc2)C1 (stereo not drawn)	3.0%	1	-6%	·	-42%[inhibitor]	20%	0
48	CCOC(=O)Cn1nc(C)c(NC(=O)CCc2ccccc2)c1C	-3.3%	-12	8%	2.3	33%	-1%	13
49	CSc1cccc(NS(=O)(=O)c2ccc(F)cc2)c1	-0.7%	5	-17%	5.4	29%	6%	8
50	Cc1ccc(C(=O)NC2CCCCCC2)cc1S(=O)(=O)N1CCOCC1	-1.8%	0	-6%	·	-5%	-1%	-19
51	CC(C)CN(CCNC(=O)c1cn(C)c2ccc(S(=O)(=O)N3CCCC3)cc2c1=O)CC(C)C	0.4%&-1.5%	·	4%	·	4%	10%	2
52	O=C(Nc1cccc(NC(=O)c2ccccc2[N+](=O)[O-])c1)c1ccccc1Cl	1.0%	·	-1%	1.6	1%	19%	4
53	CC(C)(C)NC(=O)c1cccc(NC(=O)c2cccc(O)c2)c1	-1.0%	2	-6%	-1.0	-34%[inhibitor]	12%	16
54	N#Cc1ccc(Cl)cc1NC(=O)CSc1nc2nc(-c3cccs3)cc(C(F)(F)F)c2c(=O)[nH]1	·	·	·	2.0	·	10%	2
55	Cn1ncc2c(Sc3ccc(Cl)cc3)ncnc21	·	1	4%	4.0	?	17%	-16
56	CCc1noc(C)c1C(=O)N1CCCSC1=Nc1ccccc1C(C)C	-2.6%	-23	-1%	·	-10%[15.4 µM]	·	10
57	COc1cc(-c2nnn(CC(=O)NCc3ccccc3)n2)cc(OC)c1OC	1.0%	-3	4%	-5.0	-1%[15.4 µM]	2%	-15
58	COC(=O)c1cc(S(=O)(=O)NCc2ccc3c(c2)OCO3)cn1C	·	4	10%	·	9%	6%	-1
